Compound activity as filed in PubChem BioAssay.
RGS16-Gao HTS = RGS16-Galphao interaction regulator (human); binding response (% of control), % at 10 µM; O15492+P09471; 0.38% of 220,000 active; bead-based flow cytometry RGS16-Galphao binding, fluorescence; actives lie on both sides;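 active = below 25% or above 175%, edge rows of some plates excepted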;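 note: Galphao activated by GDP with aluminum fluoride before binding; 100% = wells without compound and 0% = beads without RGS; some results beyond the cut were filed as inactive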
Target sequence (O15492 whole entry, looked up): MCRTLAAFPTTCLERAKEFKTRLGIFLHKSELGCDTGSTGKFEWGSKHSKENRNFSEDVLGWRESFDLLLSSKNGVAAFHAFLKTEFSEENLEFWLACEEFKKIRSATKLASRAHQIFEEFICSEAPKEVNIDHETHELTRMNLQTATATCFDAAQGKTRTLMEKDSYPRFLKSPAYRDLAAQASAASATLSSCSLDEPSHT
Target sequence (P09471 whole entry, looked up): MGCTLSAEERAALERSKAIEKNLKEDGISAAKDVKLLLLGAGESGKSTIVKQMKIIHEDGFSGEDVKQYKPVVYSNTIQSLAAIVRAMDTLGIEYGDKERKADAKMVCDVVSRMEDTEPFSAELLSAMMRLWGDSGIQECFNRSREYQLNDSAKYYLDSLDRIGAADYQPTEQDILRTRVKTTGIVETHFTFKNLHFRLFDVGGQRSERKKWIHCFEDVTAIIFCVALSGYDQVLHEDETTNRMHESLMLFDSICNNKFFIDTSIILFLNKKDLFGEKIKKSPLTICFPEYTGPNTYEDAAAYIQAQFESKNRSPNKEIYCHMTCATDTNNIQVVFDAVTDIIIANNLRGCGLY
HSV augment = HSV replication enhancement | HSV replication augmentation in cells, fold increase | maximum fold increase | 0.005% of 220,000 active | AID 1956;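 active = peak rise of 1.5-fold or more in the series; tested in PC3 cells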;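 note: first round at 10 µM; read as green reporter fluorescence; hits show the peak of a series up to 25 µM; 1 = signal of infected wells without compound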
PKD1 kinase inh = PKD1 (human) kinase inhibition; PKD1 kinase fluorescence polarization assay; Q15139; inhibition, %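 (about 10 µM by stock and volumes)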; 0.056% of 200,000 active; AID 797;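 active = inhibition of 50% or more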;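 note: controls were vehicle for no effect and a reference inhibitor for full effect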
Insulin prom inh = TRM-6 insulin promoter activity inhibition; TRM-6 cells (human fetal islet line), insulin promoter-eGFP reporter, imaging; reporter expression induced with tamoxifen; 0.9% of 130,000 active; inhibition, % at 2 µM; AID 1273;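 active = inhibition above the mean plus 3 SD, with well images judged a real hit on visual review, cut at about 60% in these data, passing the limit was not always enough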
GALR2 ag = agonists of human galanin receptor 2 (GALR2); O43603; GALR2-expressing cells, agonist activation read-out; activation, %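 (tested at 5 µM)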; 0.48% of 140,000 active;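 active = above mean plus 3 SD of all compounds, about 5% in these data, not always enough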;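 note: 0% = vehicle buffer wells and 100% = reference agonist at full effect; tested in CHO reporter cells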
Target sequence (O43603 whole entry, looked up): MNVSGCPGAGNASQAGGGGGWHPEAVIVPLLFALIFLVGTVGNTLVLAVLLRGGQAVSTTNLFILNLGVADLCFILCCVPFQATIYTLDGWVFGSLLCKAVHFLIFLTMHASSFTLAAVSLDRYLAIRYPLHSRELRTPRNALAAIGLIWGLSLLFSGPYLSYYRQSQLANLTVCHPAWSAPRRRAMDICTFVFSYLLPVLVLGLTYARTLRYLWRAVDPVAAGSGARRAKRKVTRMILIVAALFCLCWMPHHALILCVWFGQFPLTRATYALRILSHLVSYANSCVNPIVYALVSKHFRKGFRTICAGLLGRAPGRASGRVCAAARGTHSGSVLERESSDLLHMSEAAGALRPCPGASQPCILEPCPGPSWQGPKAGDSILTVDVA
Insulin prom inh cell count = recorded beside Insulin prom inh, whose call it bears; normalized cell count, %; measured here: cell count, toxicity; reference of the scale not given here;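 cells exposed to compound for 48 h; stained nuclei by imaging scaled within each plate; lower means fewer cells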
HSV augment primary fold = further read-out of HSV augment, marked with its call; fold increase; compound at 10 µM; measured here: primary screen fold increase 10 uM; tested in PC3 cells;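 GFP signal in the first replicate; 1 = infected wells without compound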
* = called active by the depositor; i = inactive; x = no result given.

SMILES	RGS16-Gao HTS	HSV augment	HSV augment primary fold	PKD1 kinase inh	Insulin prom inh	Insulin prom inh cell count	GALR2 ag
COc1ccc(C(O)Cc2nc3ccccc3n2C)cc1OC (centres undefined)	104	i	1	-6	-50	129	-2.8
Cc1cc(N2CCN(S(=O)(=O)c3ccc4ccccc4c3)CC2)n2ncnc2n1	110	i	1	-13	x	x	x
Cc1nc2nc(-c3ccccc3)cc(=O)n2[nH]1	101	i	1	-10	27	69	-0.9
COC(=O)c1cnc(NNC(=O)c2ccc([N+](=O)[O-])cc2)nc1C(F)(F)F	98	i	1	x	x	x	x
COc1ccc(C([O-])=Nc2ccc[n+](-c3nc4ccccc4nc3NS(=O)(=O)c3ccccc3)c2)cc1	98	i	0.74	x	x	x	x
O=C(Nc1cccc(F)c1)c1cccnc1NCCc1ccccc1	104	i	0.92	-15	18	90	-0.7
Cc1ccc(C)c(-n2c(SCC(=O)NC(C(=O)O)C(C)C)nnc2-c2cccc(Cl)c2)c1 (centres undefined)	102	i	1.1	-3	-35	97	x
Cc1ccccc1Nc1cc(C(=O)NCc2ccco2)c2ccccc2n1	110	i	0.79	6	-67	129	0.2
C1=C(c2ccccc2)Nc2ccccc2N=C1c1ccccc1	88	i	1	-9	7	99	-1.2
C/C(=C\C(=O)Nc1nccs1)c1ccccc1	100	i	0.92	-10	69	128	2.1
N=c1c2c3c(sc2ncn1Cc1ccccc1)CCCC3	136	i	1.1	4	22	84	-0.7
CCOC(=O)c1oc2nc(C(C)C)c3c(c2c1N)CCC3	103	i	0.94	-8	x	x	-1.9
S=C(Nc1ccc(Cl)cc1)Nc1cccc2cnccc12	98	i	1.1	0	50	90	-1.9
Cc1ccccc1CN(C)CC(=O)Nc1c(C)cccc1C(C)C	99	i	1.2	-5	x	x	x
C=CCn1c(COc2ccc(CC)cc2)nnc1SC/C(O)=C(\C#N)c1nc2ccccc2[nH]1	96	i	1.1	-9	27	139	-0.2
CCc1c(C)nc(SCC(=O)Nc2ccc(Br)cc2)[nH]c1=O	76	i	0.85	-12	x	x	-0.4
O=C(CC1c2ccccc2Oc2ccccc21)Nc1ccccc1C(F)(F)F	60	i	1	-6	x	x	1.6
Cc1ccc(S(=O)(=O)N2CCN(C(=O)CSc3nc4ccccc4o3)C2)cc1	106	i	0.91	5	x	x	-1.1
CCOCCOC(=O)C1=C(C)N(C)C(=O)NC1c1ccccc1F (centres undefined)	116	i	0.94	-6	29	100	-1.3
COC(=O)c1scc(C)c1NC(=O)C1CCCCC1	102	i	1	0	-42	63	-4.2
O=c1c(-c2ccc(F)cc2)[n+]([O-])c2ccccc2n1OCc1ccccn1	115	i	0.94	-1	-13	54	x
CCn1ncc([N+](=O)[O-])c1C(=O)N1CCCC1	101	i	0.97	-5	39	122	-3.0
COc1ccc(Cl)cc1NC(=S)Nc1cccnc1	103	i	1.3	-3	24	110	x
COc1cccc(OC)c1Oc1ccc(C(F)(F)F)cn1	103	i	0.92	-14	28	60	1.3
Cc1cc(C(=O)O)ccc1-c1ccc(/C=C2\NC(=O)N(Cc3ccccc3Cl)C2=O)o1	102	i	1	1	35	104	x
CCOC(=O)Cc1csc(NC(=O)c2cccc(OC)c2)n1	100	i	0.81	2	32	74	-2.6
CCN(C(=O)COC(=O)c1cc(S(=O)(=O)N2CCc3ccccc32)ccc1OC)C1CCS(=O)(=O)C1 (centres undefined)	105	i	0.92	-1	11	60	x
CCCC1C(c2ccc(OC)cc2)C(C#N)(C#N)C2(C#N)CC1(N)NC2=O (centres undefined)	100	i	1	-4	29	124	-1.0
CC(/C=C/c1ccccc1)=N\NC(=S)NC(C)C	93	i	0.93	2	x	x	x
Cc1ccc(C(C(=O)NC2CCCC2)N2CCCCC2)cc1 (centres undefined)	107	i	0.94	-2	x	x	-2.1
CCOc1ccc(CN2CCN(C(=O)c3ccccc3)CC2)cc1	102	i	1.1	-3	14	143	-4.2
CCO[C@@H]1OC(C(=O)N2CCCCCCC2)=C[C@H](c2csc3ccccc23)[C@H]1CCCO	99	x	x	3	x	x	x
CCS(=O)(=O)N1CCCC(C(=O)NCc2cccnc2)C1 (centres undefined)	106	i	1	-8	0	60	-3.0
CCOc1cc(C(=O)N(C)Cc2cc3cc(OC)ccc3[nH]c2=O)cc(OCC)c1OCC	97	i	0.93	-8	-4	47	-2.0
O=C(/C=C/c1ccc([N+](=O)[O-])cc1)NCCc1ccc(F)cc1	90	i	0.78	-4	x	x	x
O=C(NCCc1cccs1)C1CC(c2cccc(F)c2)=NO1 (centres undefined)	105	i	0.92	x	x	x	x
CCOc1ccc(NS(=O)(=O)c2cc(OCC(N)=O)c(C)cc2Cl)cc1	44	i	1	-6	-36	44	-0.4
O=C(O)C1CCN(S(=O)(=O)c2ccc(Oc3ccccc3)cc2)CC1	98	i	0.77	-6	-70	152	-3.0
O=C1CC(C(=O)N(c2cccc(F)c2)C(C(=O)NC2CCCC2)c2ccccn2)CS1 (centres undefined)	102	i	0.75	3	x	x	-0.1
CC(C)N(CC(=O)Nc1ccc(Cl)cc1C(F)(F)F)C(=O)CCl	101	i	0.96	-4	x	x	x
CCc1nnc(NC(=O)c2c(O)c3c([nH]c2=O)CCCC3)s1	106	i	0.94	-1	-21	73	-0.7
c1ccc2c(c1)COC(CN1CCCCC1)OC2	170	i	1.1	-4	x	x	x
Cc1ccc(S(=O)(=O)NCC(=O)N(CC(=O)NCc2ccco2)Cc2ccco2)cc1	102	i	1	-2	x	x	x
Cc1cc(C)c(NC(=O)c2ccc(CNS(=O)(=O)c3cc(C(F)(F)F)ccc3Cl)cc2)c(C)c1	112	i	0.91	0	-11	124	-0.5
Cc1cc(NCCN2CCOCC2)n2c(nc3ccccc32)c1C#N	98	i	0.95	-2	55	89	0.5
Cc1ccc(F)cc1NC(=O)N1CCN(c2ccnc3cc(Cl)ccc23)CC1	98	i	0.99	x	x	x	x
C=C(C)[C@@H]1CC[C@]2(C(=O)O)CC[C@]3(C)[C@H](CC[C@@H]4[C@@]5(C)CC[C@H](O)C(C)(C)[C@@H]5CC[C@]43C)[C@@H]12	100	i	0.82	x	x	x	x
CC1CN(C(=O)c2ccccc2)C(=Nc2cccc(S(=O)(=O)N(C)C)c2)S1 (centres undefined)	120	i	1.1	-4	x	x	0.1
Fc1ccc2[nH]c3c(NCCN4CCOCC4)ncnc3c2c1	122	i	0.96	-2	19	109	-1.6
CCc1cc2c(=O)c(-c3nc4ccccc4n3C)coc2c(CN2CCN(C)CC2)c1O	99	i	0.9	1	-21	129	-2.0
The results go on.
SMILES	RGS16-Gao HTS	HSV augment	HSV augment primary fold	PKD1 kinase inh	Insulin prom inh	Insulin prom inh cell count	GALR2 ag
O=C1COc2ccc(NC(=O)N3CCN(c4ccc(F)cc4)CC3)cc2N1	99	i	0.84	-3	39	97	13*
CCCCCn1c(CN2CCN(C)CC2)nc2c1c(=O)n(C)c(=O)n2C	102	x	x	0	x	x	-0.7
COc1cc([N+](=O)[O-])ccc1NC(=O)CCCOc1cc(C)ccc1C	87	i	1.1	4	x	x	-0.6
CNC(=O)COc1ccc(-c2nn(C)c(=O)c3ccccc23)cc1	114	i	0.8	0	-56	98	-3.0
O=C(Cc1cccs1)N1CCCC(c2nc3c(nnn3Cc3ccccc3Cl)c(=O)[nH]2)C1 (centres undefined)	101	i	0.9	-2	x	x	0.0
COC(=O)c1ccc(NS(=O)(=O)c2ccc(SC)cc2)cc1	103	i	0.84	-3	i	50	-0.3
COc1ccc(S(=O)(=O)N(C)CC(=O)N2CCCC2)cc1Cl	99	i	1	-6	x	x	x
COCCOCC(O)CN1CCN(c2ccc(C)cc2)CC1 (centres undefined)	90	i	0.96	-16	x	x	-0.8
CCOc1cccc(C2C(C#N)=C(N)Oc3cc(C)[nH]c(=O)c32)c1OCC (centres undefined)	102	i	1	x	x	x	x
COc1ccc(C)cc1S(=O)(=O)N(C)CC(=O)N1CCC(C)CC1	102	i	0.87	3	-62	164	-0.9
COc1cccc(NC(=O)Nc2ccc3c(c2)nc(C)n3C)c1	111	i	0.92	-7	x	x	x
COc1ccccc1NC(=O)Nc1sccc1-c1nc2ccccc2s1	92	i	1.1	x	x	x	x
COc1ccc(/C=C2\CCCC3C2=NN(C(=O)c2scnc2C)C3c2ccc(OC)c(OC)c2)cc1OC (centres undefined)	99	i	0.86	-9	-7	80	-1.6
Cc1cc(C(F)(F)F)nn1Cc1ccc(C(=O)NCc2ccco2)o1	95	i	0.81	-1	14	158	0.0
COc1ccccc1C1(CC(=O)O)CCOC(C(C)C)C1 (centres undefined)	102	i	1	-10	-23	147	-1.9
CC1CCN(CCCNC(=O)c2ccc(CS(=O)(=O)Cc3ccccc3F)o2)CC1	106	i	0.96	-3	-10	89	1.2
Cc1ccc([N+](=O)[O-])cc1N=Cc1ccc(Br)s1	113	i	0.93	-4	-28	70	-2.5
Cc1cc(Nc2cccc(F)c2)n2ncnc2n1	96	x	x	5	-30	136	0.3
C=CCn1c(CSCc2ccc(Cl)cc2)nnc1SCC(=O)NCc1ccccc1	100	i	0.99	1	-30	106	-0.1
Cc1ccc2sc(-c3ccc(NC(=O)c4cc(-n5cnnc5)ccc4Cl)cc3)nc2c1	97	i	1.1	-6	4	107	-1.1

One compound at a time, as listed above. Screens in order: RGS16-Gao HTS | HSV augment | HSV augment primary fold | PKD1 kinase inh | Insulin prom inh | Insulin prom inh cell count | GALR2 ag
C=CCn1c(CSCc2ccc(Cl)cc2)nnc1SCC(=O)NCc1ccccc1 is entered as 100 | i | 0.99 | 1 | -30 | 106 | -0.1
Cc1ccc2sc(-c3ccc(NC(=O)c4cc(-n5cnnc5)ccc4Cl)cc3)nc2c1 is entered as 97 | i | 1.1 | -6 | 4 | 107 | -1.1

Additional records follow.
SMILES	RGS16-Gao HTS	HSV augment	HSV augment primary fold	PKD1 kinase inh	Insulin prom inh	Insulin prom inh cell count	GALR2 ag
Cc1cc(N=CC2=C(O)CC(C)(C)CC2=O)no1	100	i	1	60*	27	167	-2.1
C[n+]1ccc(/C=N/Nc2nc(Cl)c(C#N)c(Cl)c2Cl)cc1	103	i	0.9	4	37	142	x
Cc1cc(=O)oc2cc(OCC(=O)NCc3cccnc3)ccc12	106	i	0.76	-2	42	114	-1.7
CCOc1cc(/C=C\c2[nH]c(=O)[nH]c(=O)c2[N+](=O)[O-])ccc1OC(C)CC (centres undefined)	97	i	1	-1	x	x	0.5
CCn1c2ccccc2c2cc(NC(=O)c3coc(=O)c(Br)c3)ccc21	105	i	0.89	x	x	x	x
C/C(=C/C(=O)NCc1ccccc1)C(=O)O	99	i	1.4	-14	-35	126	0.2
COc1cccc(C(=O)NCC(=O)N/N=C/c2cccs2)c1	90	i	0.97	-1	x	x	3.5
O=[N+]([O-])c1cccc(/C=N/NC2=NCCCCC2)c1	106	i	1	0	31	125	-0.9
Cc1nn(C)c(C(=O)NNC(=S)NCC(C)C)c1Cl	110	i	0.89	0	25	128	-0.2
COc1ccccc1CNC(=O)C(C)Sc1ccc(C)cc1 (centres undefined)	101	i	1.2	-3	-28	77	x

Copied from the results shown for reference:
SMILES	RGS16-Gao HTS	HSV augment	HSV augment primary fold	PKD1 kinase inh	Insulin prom inh	Insulin prom inh cell count	GALR2 ag
Cc1cc(N=CC2=C(O)CC(C)(C)CC2=O)no1	100	i	1	60*	27	167	-2.1
C[n+]1ccc(/C=N/Nc2nc(Cl)c(C#N)c(Cl)c2Cl)cc1	103	i	0.9	4	37	142	x

The listing continues:
SMILES	RGS16-Gao HTS	HSV augment	HSV augment primary fold	PKD1 kinase inh	Insulin prom inh	Insulin prom inh cell count	GALR2 ag
CSc1ccc(/C=C(/Sc2nnc(-c3ccccc3)o2)C(=O)O)cc1	91	i	0.85	1	80*	53*	x
O=C1OC(c2ccccc2)=C/C1=C/N1CCCCC1	96	i	0.92	-10	x	x	-1.3
Cc1cc(NC(=O)c2cc(-c3ccccc3C)nc3ccccc23)no1	109	i	0.98	-7	23	107	-0.8
Cc1cc(C)nc(SC(C)C(=O)Nc2ccc(S(N)(=O)=O)cc2)n1 (centres undefined)	105	i	0.99	-8	-188	70	-2.4
CN(C(=O)COC(=O)CCc1c[nH]c2ccccc12)C(c1ccccc1)c1ccccc1	96	i	1.1	-17	x	x	0.1
CCOC(=O)/C(=N\Nc1cc(Cl)ccc1Cl)N1CCN(CC)CC1	106	i	0.94	-3	x	x	0.1

Gathered by group, the compounds so far containing bromine
SMILES	RGS16-Gao HTS	HSV augment	HSV augment primary fold	PKD1 kinase inh	Insulin prom inh	Insulin prom inh cell count	GALR2 ag
CCc1c(C)nc(SCC(=O)Nc2ccc(Br)cc2)[nH]c1=O	76	i	0.85	-12	x	x	-0.4
Cc1ccc([N+](=O)[O-])cc1N=Cc1ccc(Br)s1	113	i	0.93	-4	-28	70	-2.5
CCn1c2ccccc2c2cc(NC(=O)c3coc(=O)c(Br)c3)ccc21	105	i	0.89	x	x	x	x
